ClpP mod: qHTS Assay for Activators of ClpP. ATP-dependent Clp protease proteolytic subunit (Bacillus subtilis (strain 168)), P80244. purified B. subtilis ClpP, FRET peptide cleavage, 20 min. Potency, µM (titrated, usually from 57.5 µM), for the others: at the highest dose activity change, negative = active. 1.9% of 340,000 active; active = well fitted falling curve with a large enough effect; inconclusive = small, poorly fitted or top-dose-only effect; inactive = no such curve, though single readings can be large or run the other way; note: potency is the fitted concentration of half-maximal effect; the source files actives as falling curves though it sought activators and does not explain the sign; nearly all actives have a fitted effect of over 65% in size; many hits overshoot -100%
Target sequence (P80244 whole entry, looked up): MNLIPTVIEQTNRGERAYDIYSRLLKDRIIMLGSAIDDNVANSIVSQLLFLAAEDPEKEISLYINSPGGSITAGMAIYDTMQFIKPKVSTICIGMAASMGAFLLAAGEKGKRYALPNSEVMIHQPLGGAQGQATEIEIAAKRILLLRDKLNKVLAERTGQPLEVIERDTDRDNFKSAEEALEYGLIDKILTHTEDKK
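ClpP 10 microg/mL final, pH 8 Tris/KCl buffer with BSA, glycerol, Tween-20; compound pinned in; FRET-FV substrate; RT 20 min; Ex320/Em430; ΔFRET vs ADEP 5.8 microM, DMSO, no enzyme.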
gsp agonist: qHTS for Agonist of gsp, the Etiologic Mutation Responsible for Fibrous Dysplasia/McCune-Albright Syndrome: qHTS; gsp mutant cells, cAMP HTRF, 30 min; control for the full effect not named in the record; Potency, µM (highest dose often 76.9 µM), for inactives: at the top dose activation (cAMP increase), actives largely listed as activators; 0.13% of 340,000 active; AID 624287, 2012; active = well fitted activation curve with a large enough effect; inconclusive = small, poorly fitted or top-dose-only effect, or another doubt; inactive = no such curve, though single readings can be large or run the other way; cell line not stated here;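 note: phosphodiesterase inhibitor Ro 20-1724 added with compounds to block cAMP breakdown; potency is the fitted concentration of half-maximal effect; nearly all actives have a fitted effect of over 60% in size; about a fifth of the inactives were tested at one dose only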
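Cells in DMEM/10% FBS with G418 were pretreated with compounds in DMSO plus […] (300 uM stock) for 30 min at 37C. cAMP was measured by HTRF (cAMP-d2 plus anti-cAMP antibody-K) after 30 min at room temperature.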
CtBP-E1A inh: qHTS Assay for Inhibitors of the CtBP/E1A Interaction; 0.49% of 340,000 active; AlphaScreen GST-E1A/His-CtBP binding, 1536-well; stronger effect = lower value; control for the full effect not named in the record; CtBP / adenovirus E1A interaction (AlphaScreen); AID 651724, 2012; activity change, % (test concentration not listed); in the data active means activity change below about -65%; inconclusive means about -30% to -65%; inactive means above about -30%; note: % is set by controls: 0 for no effect and ±100 for the full control effect; compound concentration not given in the record
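Homogeneous bead-based format: GST-tagged E1A captured on glutathione donor beads, His-tagged CtBP on nickel acceptor beads; compounds precede bead addition by 2 h at 37 °C.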
TRPV1 potentiator: HTS Assay for Compounds that Act as Potentiators of the Vanilloid Receptor 1 | Transient receptor potential cation channel subfamily V member 1 (Homo sapiens), Q8NER1 | TRPV1-expressing cells, Fluo-8 calcium influx, capsaicin EC20 potentiation; host cell line not named in the record; control for the full effect not named in the record | potentiation, % at 8.33 µM | 0.02% of 320,000 active | AID 540277, 2011; active means potentiation above 80%; inconclusive means 30% to 80%; inactive means below 30%; note: 0% is about no effect
Target sequence (Q8NER1 whole entry, looked up): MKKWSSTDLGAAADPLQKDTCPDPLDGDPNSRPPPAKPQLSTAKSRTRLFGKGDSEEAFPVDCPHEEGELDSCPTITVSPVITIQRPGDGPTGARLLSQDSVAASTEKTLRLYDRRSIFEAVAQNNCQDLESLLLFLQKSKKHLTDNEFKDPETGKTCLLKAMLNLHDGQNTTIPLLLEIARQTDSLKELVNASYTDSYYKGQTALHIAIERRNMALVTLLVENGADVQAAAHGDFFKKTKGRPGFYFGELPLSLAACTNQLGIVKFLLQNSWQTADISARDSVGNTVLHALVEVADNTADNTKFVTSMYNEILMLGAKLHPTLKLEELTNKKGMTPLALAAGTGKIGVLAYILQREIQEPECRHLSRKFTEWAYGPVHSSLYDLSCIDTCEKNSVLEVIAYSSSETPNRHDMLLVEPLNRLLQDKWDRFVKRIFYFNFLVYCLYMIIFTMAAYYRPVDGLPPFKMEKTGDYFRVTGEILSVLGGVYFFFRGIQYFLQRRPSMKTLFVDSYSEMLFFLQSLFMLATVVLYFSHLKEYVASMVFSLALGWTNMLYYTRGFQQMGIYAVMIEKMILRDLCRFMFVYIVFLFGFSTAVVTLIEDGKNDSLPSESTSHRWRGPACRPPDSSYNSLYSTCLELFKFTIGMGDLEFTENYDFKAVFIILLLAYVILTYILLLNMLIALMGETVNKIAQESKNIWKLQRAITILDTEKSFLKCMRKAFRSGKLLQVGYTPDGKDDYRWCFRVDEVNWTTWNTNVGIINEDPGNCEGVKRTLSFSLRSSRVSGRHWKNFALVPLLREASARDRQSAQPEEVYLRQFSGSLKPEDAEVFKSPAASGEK
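Fluo-8 calcium influx in TRPV1-expressing cells, kinetic read (ex 480/em 520 nm). Compound added and read 3 min for agonist activity, followed by capsaicin at EC20 final and 2 min further read for enhancement.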
Sfp inh: qHTS Assay for Inhibitors of Bacillus subtilis Sfp phosphopantetheinyl transferase (PPTase) | 4'-phosphopantetheinyl transferase ffp (Bacillus subtilis), Q9F4F7 | Biochemical Sfp PPTase activity, qHTS | Potency, µM, without a hit: max response, negative = inhibition, actives largely listed as inhibitors | 3.5% of 310,000 active | AID 1490, 2009; active = well fitted inhibition curve with a large enough effect; inconclusive = small, poorly fitted or top-dose-only effect, or another doubt; inactive = no such curve, though single readings can be large or run the other way;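 note: the enzyme is Sfp with the accession as filed and its product quenches rhodamine fluorescence; potency is the fitted concentration of half-maximal effect; 0% = enzyme reaction without inhibitor and -100% = no enzyme wells; top concentration of the series not given in the record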
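Reaction rates are the 30-min fluorescence difference (ex 525, em 598 nm) in wells containing 15 nM Sfp, 5 uM rhodamine-CoA and 12.5 uM BHQ-2-YbbR at pH 7.6 with 10 mM MgCl2.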
Menin-MLL FL inh: qHTS Assay for Inhibitors Targeting the Menin-MLL Interaction in MLL Related Leukemias: Competition With Fluorescein Labeled MLL-derived Peptide. Fluorescence polarization, fluorescein-MLL peptide displacement from menin. FP activity change, % at 61.4 µM. 290,000 tested, under 10 active. AID 1766, 2009; inconclusive = falling polarisation curve, or a change in total fluorescence; inactive = total fluorescence flat and polarisation flat or rising; no compound was filed as active; the % refers to the polarisation; negative = inhibition;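 note: % of control where 0% means no effect; inhibitors lower the polarisation; unlabelled MLL peptide was the positive control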
gsp antagonist: qHTS for Antagonists of gsp, the Etiologic Mutation Responsible for Fibrous Dysplasia/McCune-Albright Syndrome: qHTS. gsp-mutant cells, cAMP HTRF, 30 min; control for the full effect not named in the record. Potency, µM (highest dose often 76.9 µM), for inactives: at the top dose activity change, negative = inhibition, usual class: inhibitors. 0.4% of 340,000 active; active = falling curve of any shape with a large fitted effect; inconclusive = falling curve, mostly with a smaller effect; inactive = flat or rising curve; cell line not stated here;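 note: intracellular cAMP measured with PDE inhibitor Ro 20-1724 present during compound exposure; potency is the fitted concentration of half-maximal effect; % is set by controls: 0 for no effect and ±100 for the full control effect; nearly all actives have a fitted effect of over 65% in size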
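HTRF cAMP measurement after 30 min RT detection following 30 min, 37C compound treatment alongside […] (added as 300 uM solution) in G418-selected cells seeded at 2000/well and grown 16–24 h.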
* hit, by the source's call; ? = inconclusive; nt = no result given; [ ] = another dose, or the depositor's remark. Rows were taken by chance, and some 5.3% of all compounds hit somewhere here.

SMILES	ClpP mod	gsp agonist	CtBP-E1A inh	TRPV1 potentiator	Sfp inh	Menin-MLL FL inh	gsp antagonist
COC(=O)CC1C(=O)NCCN1C(=O)c1sc2ccccc2c1Cl (stereo not drawn)	-0.6%	25%	nt	-8	4%	-2.8	-3%
O=C(O)c1ccc(Cl)c(NC(=S)NC(=O)c2cccc(COc3ccccc3)c2)c1	-0.2%	-7%[15.4 µM]	0	4	-7%	1.2	-8%
O=C(NNC(=S)NCc1ccccc1)c1ccc(Br)cc1	nt	-3%[15.4 µM]	-3	13	16%	-3.4	7%
CCN(C(=O)COC(=O)C1COc2ccccc2O1)c1c(N)n(Cc2ccccc2)c(=O)[nH]c1=O (stereo not drawn)	0.3%	-44%[inhibitor]	3	nt	nt	nt	1%
Cc1ccccc1S(=O)(=O)Cc1ccc(C(=O)NC2CCCCCC2)o1	-3.1%	-59%[inhibitor]	-18	-5	11%	-12	-8%
O=C(c1ccc(CNS(=O)(=O)c2ccccc2)cc1)N1CCN(c2ccccn2)CC1	-16%	-33%[inhibitor]	-1	21	16%	5.6	-10%
Cn1c(C23CC4CC(CC(C4)C2)C3)n[nH]c1=S	-3.2%	?	-11	-10	-1%	0.7	6%
Cc1ccc(NN=Nc2nc3c([nH]2)c(=O)n(C)c(=O)n3C)cc1	-2.9%	13%	-4	3	25µM*	1.1	17%
CC(C)(C)C(=O)CSc1ccc(S(=O)(=O)N2CCN(Cc3ccccc3)CC2)cn1	-2.1%	-21%	-8	-3	nt	nt	-5%
O=C(Nc1ccc2nc(-c3ccccc3)oc2c1)c1ccco1	52%	-27%	0	6	0%	2.5	?
O=C(COC(=O)c1cc(S(=O)(=O)N2CCOCC2)ccc1Cl)NC1CC1	0.0%	-14%	2	-8	nt	nt	-2%
Cc1ccc2cc(CN(C)C(=O)C3CCCO3)c(=O)[nH]c2c1 (stereo not drawn)	?	-3%	9	-6	18%	-1.2	0%
COc1ccc(C)cc1S(=O)(=O)n1ccnc1C	nt	-29%	0	3	6%	0.9	14%
O=C1NC(Cc2c[nH]c3ccccc23)C(=O)N1Cc1ccccc1 (stereo not drawn)	-0.6%	?	4	-1	16%	nt	1%
COCCN1C(=O)Cc2c1nc(N)c1c(N)nc(N3CCN(c4ccc(F)cc4)CC3)c(C#N)c21	29%	4%	?	1	21%	2.0	-24%
Cc1cc(N2C(=O)C(O)=C(C(=O)c3ccco3)C2c2ccc(O)cc2)no1 (stereo not drawn)	-2.5%	?	4	-7	-18%	4.0	4%
CCc1ccc2[nH]c(=O)c(CN(CCCN3CCOCC3)C(=O)Nc3cccc(Cl)c3)cc2c1	?	6%	-5	17	-9%	-0.6	0%
CCCCn1c(N)c(N(CCOC)C(=O)CC(NC(=O)c2ccccc2Cl)c2ccccc2)c(=O)[nH]c1=O (stereo not drawn)	-2.5%	6%	-7	nt	nt	nt	15%
CCOc1ccc(CN2CCN(Cc3cn(CC)nc3C)CC2CCO)cc1 (stereo not drawn)	-0.2%	-36%[inhibitor]	nt	-1	-4%	2.0	3%
COCCN(C(=O)c1snc(C(N)=O)c1N)C(C(=O)NC1CCCCC1)c1ccc(OC)c(OC)c1 (stereo not drawn)	-22%	-3%	-3	17	13%	2.0	-5%
O=C1C(Cl)=C(N2CCCCC2)C(=O)N1c1ccccc1Cl	0.9%	-2%	12	-12	-6%	6.2	-10%
O=C1SCCC1NS(=O)(=O)c1ccccc1[N+](=O)[O-] (stereo not drawn)	nt	3%	1	20	-1%	3.6	5%
CCOc1cc(NC(=S)NCC2CCCO2)c(OCC)cc1NC(=O)C1CC1 (stereo not drawn)	1.3%	-3%	nt	-17	8%	-1.1	-7%
CCC(=O)Nc1nc2ccc3sc(C)nc3c2s1	nt	0%[15.4 µM]	-13	-18	-5%	4.4	3%
Cn1c(N)c(C(=O)COC(=O)c2cnc(Cl)c(Cl)c2)c(=O)n(C)c1=O	nt	0%[15.4 µM]	?	-2	5%	-2.6	-18%
Cc1ccccc1OCCC(=O)Nc1ccc(N2CCOCC2)cc1N1CCOCC1	-1.4%	27%	-1	28	nt	nt	-6%
Nc1c(N(CCC2=CCCCC2)C(=O)CCCOc2ccccc2)c(=O)[nH]c(=O)n1Cc1ccccc1	1.2%	21%	1	3	nt	nt	-20%
COc1ccccc1NC(=O)N1c2ccc(F)cc2CCC1C (stereo not drawn)	-2.8%	-4%	-1	-3	-13%	1.4	4%
Cc1cccc(NC(=O)C(C)SCc2nc3sc4c(c3c(=O)[nH]2)CCCC4)n1 (stereo not drawn)	nt	-4%[15.4 µM]	-3	22	nt	nt	-11%
Nc1ccc2c(c1)-c1ccc(F)cc1C2=O	2.1%	26%	1	nt	nt	nt	-3%
O=C(Nc1ccc(Oc2ncccn2)cc1)c1ccco1	-0.6%	-13%	1	8	5%	4.6	4%
CCCCOC(=O)c1ccc(NC(=O)c2ccoc2C)cc1	3.5%	5%	1	0	14%	5.6	-3%
Cc1nc2ccc(NC(=S)N3CCN(c4ccccn4)CC3)cc2nc1C	-4.7%	-13%	-8	-5	7%	2.1	9%
Cc1c(Cl)cccc1NC(=O)CS(=O)(=O)c1ccccc1	nt	-51%[inhibitor]	0	-4	5%	1.3	8%
CCN(Cc1ccccc1)C(=O)COC(=O)c1cc(S(=O)(=O)Nc2c(C)n(C)n(-c3ccccc3)c2=O)ccc1C	nt	?	2	-1	20%	-1.0	-27%
COc1cc(NC(=O)c2onc(C)c2Cl)cc(OC)c1OC	0.4%	-38%[inhibitor]	1	4	3%	-7.2	0%
COc1ccc(C2=NOC(CNC(=S)N3CCOCC3)C2)cc1 (stereo not drawn)	nt	-2%	2	-4	1%	2.2	-3%
CC(=O)Nc1ccc(N=NN2CCOCC2)cc1	nt	4%	2	-2	6%	-0.4	-1%
Cc1c(NC(=O)C(C)OC(=O)CCc2ccccc2)c(=O)n(-c2ccccc2)n1C (stereo not drawn)	nt	-12%[15.4 µM]	4	3	12%	0.9	0%
CC(C)c1ccc(CNc2ncccn2)cc1	-0.9%	-6%[15.4 µM]	0	?	?	-2.2	9%

Next part, overlapping the part above by 2 compounds.
SMILES	ClpP mod	gsp agonist	CtBP-E1A inh	TRPV1 potentiator	Sfp inh	Menin-MLL FL inh	gsp antagonist
Cc1c(NC(=O)C(C)OC(=O)CCc2ccccc2)c(=O)n(-c2ccccc2)n1C (stereo not drawn)	nt	-12%[15.4 µM]	4	3	12%	0.9	0%
CC(C)c1ccc(CNc2ncccn2)cc1	-0.9%	-6%[15.4 µM]	0	?	?	-2.2	9%
O=C(CN1CCCCCCC1)Nc1ccc(Cl)cc1Cl	nt	16%[15.4 µM]	2	2	11%	0.1	4%
CC(=O)/C=C/c1ccc(C)o1	-2.7%	0%[15.4 µM]	1	9	40µM*	?	1%
COC(=O)c1cc(OC)c(OC)cc1NC(=O)CSc1nnnn1Cc1ccccc1	-8.9%	15%	-13	14	-6%	4.8	-17%
Cc1cc(=O)n2nc(N3CCCC(C(=O)NCCCN4CCc5ccccc5C4)C3)sc2n1 (stereo not drawn)	-1.7%	-8%	6	-1	-5%	1.8	0%
CCOc1ccc(S(=O)(=O)N2CCOCC2)cc1NC(=O)CN1C(=O)NC(C)(C2CC2)C1=O (stereo not drawn)	-1.3%	2%	1	nt	nt	nt	nt
CCC1(C)N=C(c2ccc3c(c2)OCO3)CC(c2ccccc2O)N1 (stereo not drawn)	-16%	-23%	-3	-14	2%	2.7	9%
CCc1cc(=O)oc2cc(C)cc(OCc3nn[nH]n3)c12	?	-8%	-6	-3	10%	-6.3	?
CC(C)CNC1=C(C(=S)Nc2ccccc2)C(=O)CC(C)(C)C1	-0.6%	-20%	-7	-5	1%	5.4	-23%
CC(C)C1Nc2c(O)cc(Cl)c([N+](=O)[O-])c2C2C=CCC21 (stereo not drawn)	-1.1%	-33%	-17	3	-12%	-5.2	-6%
CCCC(C(=O)Nc1ccc(C)c(S(=O)(=O)N2CCOCC2)c1)c1ccccc1 (stereo not drawn)	1.2%	2%[15.4 µM]	0	-5	nt	nt	0%
CC(C)C[C@H](NC(=O)N1CC(=O)Nc2ccccc21)C(=O)N1CCC(C(=O)O)CC1	-0.5%	-5%	8	12	5%	2.0	2%
O=C(O)c1ccccc1-c1ccccc1C(=O)NCCCO	1.1%	-3%	6	19	0%	1.6	8%
O=C(CCC(=O)c1cccs1)NNC(=O)c1cc(Cl)ccc1Cl	nt	26%	5	nt	nt	nt	9%
Cc1cn(C)c(=O)n(C)c1=O	-2.7%	nt	-1	18	16%	-6.8	9%
Cn1c(-c2ccco2)n[nH]c1=S	nt	-9%[15.4 µM]	26	-12	-14%	-0.1	-9%
COC(=O)[C@@H]1CC[C@H](C)[C@@H](c2ccc(C)cc2)N1C(=O)c1ccc(/C=N/O[C@@H](C)c2cn([C@H](CO)Cc3ccccc3)nn2)cc1	nt	nt	nt	11	5%	0.1	nt
CCc1ccc(C2CC(c3ccccc3Cl)Nc3nc(N)nn32)cc1 (stereo not drawn)	2.7%	-45%[inhibitor]	-4	-19	-5%	-1.9	-8%
N#C/C(=C\c1ccc(-c2ccc([N+](=O)[O-])cc2)o1)C(=O)Nc1nc(-c2cccs2)cs1	-3.0%	-62%[inhibitor]	-22	-15	-20%	4.1	-3%
COc1cccc(Nc2nc(-c3sc(NC(=O)CC(C)C)nc3C)cs2)c1	2.1%	?	-9	-36	14%	3.9	6%
Cc1ccc(SCc2cc(=O)[nH]c(N3CCN(Cc4ccccc4)CC3)n2)cc1	-0.1%	-1%	7	1	13%	3.8	2%
CCC1(CC)NC(=O)N(CC(=O)OCC(=O)c2ccccc2OC)C1=O	nt	19%[15.4 µM]	9	-10	nt	nt	3%

Screening data (PubChem BioAssay)
